# Source: PubChem
# HIV Env fusion = inhibitors of HIV Env-mediated cell fusion; HeLa-JRFL Env/CEM21 cell fusion, luciferase; inhibition, % at 12.3 µM; actives 1.1% (n = 360,000); AID 651610;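 active = mean replicate inhibition score of at least 50 and every replicate individually at or above 50; inconclusive = only one of the two criteria met; inactive = mean below 50 and not all replicates reaching 50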;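 note: 0% = plate neutral controls and 100% = maraviroc near 300 nM; one replicate is shown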
# eIF4H FP inh = inhibitors of RNA binding by human eIF4H. AID 2012. actives 0.94% (n = 290,000). eIF4H fluorescence polarization binding assay. Q15056. inhibition, % at 35 µM;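 active = 50% or more with normal probe brightness, or confirmed in later tests; inconclusive = above 50% with abnormal brightness, or retests that disagree; inactive = below 50% or failed in later tests; about a fifth of its hits are not listed in these tables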;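 note: calls also rest on retests at 20 µM and on dose response follow-up; 0% = protein and probe with vehicle and 100% = probe without protein; strong numbers were not always called active; many hits fall short of the cut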
# CSC inhib = cancer stem cell inhibition; actives 1.1% (n = 300,000); cancer stem cell-like cells viability, luminescence; inhibition, % at 7.5 µM; AID 2717;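 active = mean at 75% or more and at least half the replicates too; inconclusive = mean and replicates disagree; tested in HMLE shEcad cells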;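 note: 0% = median of negative and 100% = median of positive control wells; the first replicate is given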
# Rce1 inhib = blocks yeast Ras-converting enzyme; calls only; actives 0.27% (n = 290,000); AID 2563; Q03530; yeast membranes, quenched prenylated peptide cleavage fluorescence;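 active = fall in fluorescence gain of 50% or more versus controls, with final raw signal at or below 3038400; inconclusive = same 50% fall but final raw signal above 3038400; inactive = fall in fluorescence gain under 50%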;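 note: plate controls were neutral control wells for no effect and wells lacking membranes for full effect; tested at 10 µM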
# Target sequence (Q03530 whole entry, looked up): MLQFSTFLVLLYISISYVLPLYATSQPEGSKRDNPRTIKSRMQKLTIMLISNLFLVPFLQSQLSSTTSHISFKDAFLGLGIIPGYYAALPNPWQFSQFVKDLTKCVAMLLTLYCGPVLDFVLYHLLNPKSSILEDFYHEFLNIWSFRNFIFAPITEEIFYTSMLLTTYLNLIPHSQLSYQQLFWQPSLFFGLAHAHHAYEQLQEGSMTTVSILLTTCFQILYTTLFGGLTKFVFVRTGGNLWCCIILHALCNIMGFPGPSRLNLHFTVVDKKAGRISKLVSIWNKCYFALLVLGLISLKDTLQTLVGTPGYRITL
# MT1-MMP act inh = inhibitors of human MT1-MMP activation | AID 651647 | HT1080 RFP-PRO-GFP cells, GFP/RFP ratio fluorescence, overnight; percent of plate control window, DMSO zero | GFP/RFP ratio change, % at 20 µM | actives 0.061% (n = 360,000);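 active = GFP/RFP ratio change of at least 30% with cell ATP level not reduced by more than half and red fluorescence within 50% of control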; note: strong numbers were not always called active
#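 Material: RFP-PRO-GFP reporter HT1080 cells. Dosing: single-point 20 µM compound, 1% DMSO. Controls: DMSO and RFP-L50D-GFP cell wells. Timing: cells overnight before dosing, compound overnight, 37 °C, 5% CO2. Measure: GFP/RFP fluorescence ratio.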
# Yeast UUG start = alters start codon recognition fidelity in yeast; S. cerevisiae UUG-firefly luciferase reporter, luminescence/redox ratio; activity score, % at 18.7 µM; actives 0.13% (n = 350,000); AID 602363;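 active = replicate mean at a twofold rise or more, about +100% in these data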;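 note: firefly luciferase made from a UUG start codon reports start codon fidelity; reporter light over untreated wells divided by growth signal over untreated wells; some hits fall short of that in this replicate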
# PABP FP inh = PABP-poly(A) binding inhibition | P11940 | PABP-poly(A) RNA binding, fluorescence polarization | inhibition, % at 35 µM | actives 1% (n = 290,000) | AID 2014;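 active = 50% or more with normal probe brightness, or confirmed in later tests; inconclusive = above 50% with abnormal brightness, or retests that disagree; inactive = below 50% or failed in later tests; about a fifth of its hits are not listed in these tables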;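 note: calls also rest on retests at 20 µM and on dose response follow-up; controls were probe without protein and protein plus probe with vehicle; some compounds called inactive have numbers as strong as hits; many hits fall short of the cut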
# MT1-MMP act inh RFP = further read-out of MT1-MMP act inh, marked with its call; RFP signal change, %; measured here: RFP expression control read;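 0 = vehicle wells; hits needed this value within 50% of zero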
# Active calls of the source: *; i = inactive; ? = inconclusive; / = no result given; + = active, no number; & = joins results of further samples.
SMILES	Yeast UUG start	HIV Env fusion	Rce1 inhib	MT1-MMP act inh	CSC inhib	eIF4H FP inh	PABP FP inh	MT1-MMP act inh RFP
Nc1c(C(=O)CSc2nnc(COc3ccc(Cl)cc3)o2)c(=O)[nH]c(=O)n1C1CC1	-4	10	/	2	-8	/	/	-11
O=C1c2[nH]c(=O)[nH]c(=O)c2CN1Cc1ccccc1	-12	-9	/	7	/	/	/	2
Brc1ccc(CN2CCN(c3ccccc3)CC2)o1	-8	-2	i	-1	5	2	4	2
CCCCCc1cc(=O)oc2c(C(CCN3CCN(c4ccccc4)CC3)c3ccc4c(c3)OCO4)c(OC)cc(OC)c12 (stereo not given)	-29	39	i	-4	14	-16	-3	-18
O=C(CN1C(=O)CCS(=O)(=O)c2ccccc21)Nc1ccccc1F	-10	1	i	1	-8	6	16	3
O=C(CN(Cc1ccco1)C(=O)c1ccc(F)cc1F)Nc1ccccc1C(F)(F)F	-13	/	/	-1	-7	/	/	6
O=C(OCc1cc(=O)c(OC(=O)c2ccccc2)co1)c1ccccc1	-12	-14	/	4	/	/	/	8
C/C(=N\Nc1nc2ccc(Cl)cc2o1)c1ccccc1	-19	1	i	2	4	-9	-7	1
CC1CN(C(=O)C2CC(=O)N(c3ccc(Cl)cc3)C2)CC(C)O1 (stereo not given)	23	2	i	3	/	1	-7	1
COc1ccc(NC(=O)CN(C)C(=O)C2CC(=O)N(Cc3ccc(C)cc3)C2)cc1 (stereo not given)	/	-15	i	2	-10	/	/	-1
COc1ccccc1N(CC(O)CN1CCOCC1)S(=O)(=O)c1ccccc1 (stereo not given)	-14	14	i	-1	/	-3	5	-1
c1ccc2c(c1)nc(CN1CCOCC1)n1c3ccccc3nc21	-13	/	i	3	-17	-4	-8	7
CC(=O)Nc1cccc(NC(=O)c2c(-c3ccccc3Cl)noc2C)c1	4	/	i	5	-5	6	-9	-8
Cc1cc2cc(C)c3nnc(SCC(=O)NCc4ccco4)n3c2cc1C	-18	5	i	8	-13	-2	7	-6
Cc1cc2cc(CNC(=O)c3cccs3)ccc2n1C	9	-14	i	30	4	8	18	67
COc1ccc(NC(=O)c2cc(C3CCCCN3S(=O)(=O)Cc3ccccc3)on2)cn1 (stereo not given)	-16	12	/	-1	/	/	/	-6
COc1ccc(N(CC(=O)Nc2ccccc2Cl)S(=O)(=O)c2ccc(C)cc2)cc1OC	-9	9	i	-3	4	-11	4	-7
CCC(=O)Oc1cccc(C(=O)Nc2cccc(NC(=O)c3ccco3)c2)c1	1	9	i	2	25	2	0	0
COc1cc(NC(=O)c2nccnc2N)cc(C(=O)Nc2cccc(C(F)(F)F)c2)c1	-34&-16	18	i	2&11	1	-9	-3	2&11
O=c1[nH]c(SCc2ccc(Cl)cc2)nc2ccsc12	/	-18	i	/	-9	1	11	/
Cc1ccc(C(=O)N2CC(=O)Nc3ccc(F)cc3C2c2ccccc2)cc1 (stereo not given)	2	15	i	-9	-12	3	-2	1
O=C(N/N=C/C(Cl)=C/c1ccccc1)c1cnccn1	-26	/	i	6	/	-2	-6	1
COc1ccc(-c2c([C@H]3[C@@H]4C=CCC[C@@]4(C)C(=O)N3Cc3ccccc3)ccc3ccccc23)cc1OC	-9	29	i	-2	-2	-14	-3	-17
COC(=O)c1ccccc1NC(=O)CC#N	-16	/	i	-3	-3	3	47	3
c1ccc(CNc2nnnn2-c2ccccc2)cc1	-16	18	i	2	/	-15	-4	-3

# Next section.
SMILES	Yeast UUG start	HIV Env fusion	Rce1 inhib	MT1-MMP act inh	CSC inhib	eIF4H FP inh	PABP FP inh	MT1-MMP act inh RFP
CC1(C)CC(Cc2ccc(Cl)nc2)N(C(=O)OC(C)(C)C)C1 (stereo not given)	-14	21	/	4	/	/	/	3
O=C(c1ccc([N+](=O)[O-])cc1)N1CCCC1	0	-25	i	3	0	4	2	1
COc1cc2c(cc1OC)C(c1ccc(Br)cc1)CC(=O)N2 (stereo not given)	2	13	i	1	-25	7	3	-4
C=CCNS(=O)(=O)c1ccc2c(c1)n(C)c(=O)n2C	/	-35	i	0	-4	5	-6	5
Cc1oc(-c2ccc(Cl)cc2)nc1CN1CCCC(C(=O)NCCCN2CCCC2=O)C1 (stereo not given)	14	38	/	-1	-11	1	-7	-10
CCn1ccc(-c2ccccc2)c(C#N)c1=O	/	-10	i	-7	5	-4	-15	-6
Cc1cc2nc3c(=O)[nH]c(=O)[nH]c3nc2c([N+](=O)[O-])c1N	-24	-1	/	-81	/	?	-3	3
Cc1ccc2nc3c(cc(C(=O)NCCc4ccccc4)c(=N)n3CCCN3CCOCC3)c(=O)n2c1	-18	-3	i	-2	12	8	6	4
COc1ccc(OC)c(/C=N/c2c(-c3ccc(O)c(OC)c3)nc3ccccn23)c1	-22	-70	+	3	-18	-9	-8	1
COc1ccc(C2NC(=O)c3sc4nc(C)c(C(C)=O)c(-c5ccc(Cl)cc5)c4c3N2)cc1 (stereo not given)	-1	/	i	0	2	-2	-12	6
CCCCOc1ccc(NC2=NC3(CCCCC3)N=C(N)N2)cc1	/	-39	i	-12	36	-8	0	-1
COc1cc(C(O)c2nc(-c3ccncc3)cs2)ccc1F (stereo not given)	-16	5	/	-3	/	/	/	-19
CCOC(=O)N1CCN(S(=O)(=O)N2CCCC(C(=O)NCCc3ccc(OC)c(OC)c3)C2)CC1 (stereo not given)	-1	0	i	2	-11	-3	0	4
COc1cccc(C(=O)Nc2ccc(NC(=O)C3CC3)cn2)c1	-17	-113	i	8	6	-10	-5	2
CCNc1nc(NCC)n2c(SCC(=O)Nc3ccc(NC(C)=O)cc3)nnc2n1	-4	/	i	2	5	/	/	2
CC1(C)CC(=O)C=C(c2ccc(-c3ccc(OC(F)(F)F)cc3)cc2)C1=O	-15	-42	/	-2	/	/	/	-14
COc1ccc(C2=CC3=C(Br)C(=O)C(C)(OC(=O)C4CCCC4)C(=O)C3=CO2)cc1 (stereo not given)	-14	/	i	-1	1	?	?	6
Cn1c(SCC(=O)NCc2ccco2)nnc1C1CCCC1	-6	16	i	2	/	7	-5	4
CCN1C=C(Cc2ccc(OC)cc2)C2=C(C1)C(c1ccc(OC)cc1)C(C#N)=C(N)O2 (stereo not given)	4	/	/	0	-1	18	19	20
CC(C)(C)c1ccc(OCCC(=O)NCC(c2cccs2)N2CCOCC2)cc1 (stereo not given)	-9	12	i	1	1	/	/	-4
CCN(CC(=O)Nc1ccc(NC(C)=O)cc1)C(=O)Cc1coc2cc(C)c(C)cc12	-16	-36	i	6	-6	/	/	2
O=C(Nc1ccc(F)cc1)c1cnc(-c2ccccc2)nc1-c1ccccc1	5	-29	i	8	-2	-3	-4	-9
O=C(CCSc1ccc(Cl)cc1)c1cccs1	/	/	i	-21	-6	-13	-4	-16
O=S(=O)(CCc1nc2ccccc2[nH]1)c1ccc(Cl)cc1	1	7	i	0	/	0	-4	1
O=C(Cc1ccc(Cl)cc1)Nc1ccc(Br)cc1	-14	4	i	-1	6	6	-4	-3

# Further structures follow:
SMILES	Yeast UUG start	HIV Env fusion	Rce1 inhib	MT1-MMP act inh	CSC inhib	eIF4H FP inh	PABP FP inh	MT1-MMP act inh RFP
CN(C)/C=N/c1sc2c(c1C#N)CCCC2	-22	-20	i	-5	24	6	14	1
Cc1cccc2c1c1ccc3c(c1n2C)C(=O)C=CC3=O	-6	-68	/	-7	/	24	5	10
CCOc1ccc(C2C(C(=O)c3ccco3)=C(O)C(=O)N2Cc2cccnc2)cc1 (stereo not given)	/	-9	i	1	-15	-8	9	4
CN(C)c1ccc(C(=O)OCC(=O)Nc2cccc(S(=O)(=O)N3CCCC3)c2)cc1	0	/	/	2	-9	/	/	-6
CC1CCCC(NC(=O)CCC(=O)c2ccc(F)cc2)C1C (stereo not given)	/	-2	i	-3	17	-12	-1	2
O=c1ccn([C@@H]2O[C@H](CNCc3ccc(-n4cccn4)cc3)[C@@H](O)[C@H]2O)c(=O)[nH]1	-4	6	/	5	/	/	/	6
CC(=O)NC(CC(=O)NC12CC3CC(CC(C3)C1)C2)c1ccccc1 (stereo not given)	-8	-34	i	1	21	9	5	9
CCCCCCC(=O)c1c(C)[nH]c(C(=O)OCC)c1C	18	-49	i	-5	3	-11	-3	-15
O=[N+]([O-])c1nn(-c2ccc3c(c2)OCCO3)n(O)c1=NCc1ccc(F)cc1Cl	/	-27	i	-4	-1	?	15	-1
NC(=O)c1oc2ccccc2c1NC(=O)C1COc2ccccc2O1 (stereo not given)	/	-29	i	4	12	-9	-1	-5
CC(C)CC(N)c1csc(Nc2ccc(C(=O)c3ccccc3)cc2)n1 (stereo not given)	7	23	/	-7	/	/	/	-6
COc1ccc(COC(=O)c2ccc(Br)c(S(=O)(=O)N3CCOCC3)c2)cc1F	-3	28	i	6	16	/	/	0
NC(=O)COC(=O)[C@@H]1CC(O)CN1S(=O)(=O)c1ccc2c(c1)OCCO2 (stereo not given in full)	/	-15	i	0	-12	2	-3	6
Cc1ccc2nc(-c3ccc(NC(=O)CSc4nccc(=O)[nH]4)cc3)sc2c1	/	-66	/	4	41	2	1	0
C=CCc1c(C)nc(SC)nc1Nc1ccc(C(C)=O)cc1	-13	/	i	-1	21	-2	-12	-7
CC1(C)CC(=O)C(N=Nc2ccc(Br)cc2)=C(O)C1	-23	-7	i	0	34	9	-11	-5
COc1ccc(CCNC(=O)C2CC(c3ccc([N+](=O)[O-])cc3)=NO2)cc1 (stereo not given)	-21	-24	i	1	7	-2	-2	1
CCOC(=O)c1c(C)[nH]c(C(=O)OCC(=O)Nc2ccccc2)c1C	-14	-5	/	5	3	/	/	-4
CCOC(=O)CSc1nnc(CNc2nc(-c3ccccc3)cs2)n1C	-18	/	i	4	-12	-6	2	9
CCOC(=O)N1CCN(C(=O)C2CCN(S(=O)(=O)N3CCC4(CC3)OCCO4)CC2)CC1	-5	-10	i	0	-11	/	/	3
CCNC(=O)/C(=C/c1cccc([N+](=O)[O-])c1)NC(=O)c1ccc(C)cc1	/	-3	i	0	-24	-2	-12	3
O=C1CC(=C2c3ccccc3-c3ccccc32)C(=O)N1CCN1CCN(c2ccccc2)CC1	-8	-42	i	5	-13	/	/	5
COc1cccc(C(=O)Nc2cc(NC(=O)c3ccco3)ccc2OC)c1	-13	-29	/	2	-19	-6	3	3
CCCCC(CC(C)O)c1n[nH]c(=S)n1-c1ccccc1 (stereo not given)	/	3	i	5	-4	10	-1	14
Nc1c2c(nc3sc4c(c13)CCCC4)CCCCCC2	-6	2	i	2	54	0	7	-3

# Further results:
SMILES	Yeast UUG start	HIV Env fusion	Rce1 inhib	MT1-MMP act inh	CSC inhib	eIF4H FP inh	PABP FP inh	MT1-MMP act inh RFP
Cc1nn(-c2cccc(C(F)(F)F)c2)c(=O)c2ccccc12	3	2	i	4	-4	-2	4	-4
COc1ccc(C)cc1N(CC(=O)Nc1cccnc1)S(=O)(=O)c1ccc(C)cc1	-14	-10	i	-1	-1	-7	-7	0
CCc1nc(Nc2ccccc2OC)c2oc3ccccc3c2n1	-11	10	i	-1	14	8	10	1
O=S(=O)(Nc1cccc2ccccc12)c1cccs1	-4	1	i	3	0	3	1	8
C=CCn1c(SCc2cc([N+](=O)[O-])cc3c2OCOC3)nc2cc(C(=O)O)ccc2c1=O	-16	15	/	-8	-4	-6	2	0

# Sorted by SMILES length (descending): some entries from above
SMILES	Yeast UUG start	HIV Env fusion	Rce1 inhib	MT1-MMP act inh	CSC inhib	eIF4H FP inh	PABP FP inh	MT1-MMP act inh RFP
CCOC(=O)N1CCN(C(=O)C2CCN(S(=O)(=O)N3CCC4(CC3)OCCO4)CC2)CC1	-5	-10	i	0	-11	/	/	3
O=C(CN1C(=O)CCS(=O)(=O)c2ccccc21)Nc1ccccc1F	-10	1	i	1	-8	6	16	3
O=S(=O)(Nc1cccc2ccccc12)c1cccs1	-4	1	i	3	0	3	1	8
